AID504770: E. coli YBA685 growth inhibition, screen for V. cholerae RctB inhibitors; E. coli YBA685 rctB-dependent plasmid, OD600 growth, 3 h; hits give low values; z-score (no concentration beside the values); AID 504770; 0.27% of 130,000 active;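 active means z-score under -2 on both plates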;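 further: wells of about 30 µL received 100 nL stock; score is relative to mean and SD of the test wells; the first replicate is given; strong numbers were not always called active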
Ba CapD inh: inhibitors of Bacillus anthracis CapD enzyme. purified CapD enzyme, fluorescence intensity read-out; hits give low values; some hits fall short of the stated cut. z-score (test concentration not listed). 0.23% of 140,000 active. AID 492967;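 active means z-score under -4 in either of two replicates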;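 further: stock transfer was 100 nL into about 40 µL; score is relative to mean and spread of the plate; one replicate is shown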
The depositor's hits bear a star; x = not tested or not shown; & = joins results of further samples.

SMILES	AID504770	Ba CapD inh
COc1ccc(CN2CCN(Cc3ccco3)CC2)c(OC)c1OC	0.35	0.47
COc1cc(C2Nc3ccc4ccccc4c3C3=C2C(=O)CC(C)(C)C3)cc(Br)c1OC(C)=O (stereo not given)	x	-0.17
CC1CCC(C(C)C)C(OC(=O)CSc2cccc[n+]2[O-])C1 (stereo not given)	-0.55	-0.64
O=C(Nc1ccc2c(c1)N(S(=O)(=O)c1ccc(Cl)cc1)CC2)C1CC1	x	-0.42
COc1ccc(-c2noc(N3CCCCCC3)n2)cc1	1.4	0.43
COc1ccc(-c2nnc(SCN3C(=O)c4ccccc4C3=O)n2C(C)C)cc1	0.25	x
COC(CNC(=O)c1ccc2c(c1)nc(C)n2-c1ccc(Br)cc1)OC	x	1.2
COC(=O)c1ccccc1Oc1c(F)c(F)nc(N2CCOCC2)c1F	-1.2	-0.94
CCOC(=O)c1c(NC(=O)CSc2nc3ccccc3[nH]2)sc2c1CCN(C)C2	x	4.8
Cc1nn(-c2ccccc2)c(N2CCCCC2)c1C=C(C#N)C#N	-0.9	x
CCOc1ccc2nc(NC(=O)c3cccc(OC)c3)sc2c1	0.05	x
COc1cc(NC(=O)/C(=C/c2ccco2)NC(=O)c2ccc(C)c(C)c2)cc(OC)c1OC	-0.3	-0.28
NNC(=O)[C@H]1C[C@H]1C(=O)NN	x	-0.79
COC(CNC(=O)c1ccc(CS(=O)c2ccccc2)o1)OC (stereo not given)	-0.45	-0.77
CC1CCN(c2nc3nonc3nc2Nc2cccc(Cl)c2)CC1	x	-0.14
CCC(=O)Nc1nc2ccccc2n1CCN1CCOCC1	-1.1	0.41
O=C(C1CN(Cc2nc(-c3ccc(Cl)cc3)no2)c2ccccc2O1)N1CCOCC1 (stereo not given)	-3	x
O=C(COc1ccccc1)N1CCNC1=O	-0.4	0.34
Fc1ccc(Nc2ncnc3sccc23)cc1	0.15	0.98
Cc1ccc(CSC2=NCC(C)N2)cc1 (stereo not given)	-0.4	-0.5
Clc1ccc(C2N(c3ccc(Cl)cc3)CCN2c2ccc(Cl)cc2)cc1	x	0.62
Cc1ccc(N(C)C(=O)Cn2c(=O)oc3cc(S(=O)(=O)N4CCCC4)ccc32)cc1	1.1	0.11
CCOc1ccc(OC(=O)c2sc3ncn(CC)c(=O)c3c2C)cc1	-0.25	0.32
O=C(c1cccc(-n2cnnn2)c1)N1CCOCC1	-0.8	-0.33

Overlap with the part before: 7 entries, followed by the next part.
SMILES	AID504770	Ba CapD inh
O=C(COc1ccccc1)N1CCNC1=O	-0.4	0.34
Fc1ccc(Nc2ncnc3sccc23)cc1	0.15	0.98
Cc1ccc(CSC2=NCC(C)N2)cc1 (stereo not given)	-0.4	-0.5
Clc1ccc(C2N(c3ccc(Cl)cc3)CCN2c2ccc(Cl)cc2)cc1	x	0.62
Cc1ccc(N(C)C(=O)Cn2c(=O)oc3cc(S(=O)(=O)N4CCCC4)ccc32)cc1	1.1	0.11
CCOc1ccc(OC(=O)c2sc3ncn(CC)c(=O)c3c2C)cc1	-0.25	0.32
O=C(c1cccc(-n2cnnn2)c1)N1CCOCC1	-0.8	-0.33
O=C(Cc1cccc2ccccc12)Nc1ccc(CCC(=O)N2CCCC2)cc1	-0.6	-0.04
CCOC(=O)C1=C(Cn2ncc(Cl)c(Cl)c2=O)NC(=O)NC1C (stereo not given)	-0.3	x
CC(C)c1ccc(S(=O)(=O)N2CCN(S(=O)(=O)c3ccc(C(C)C)cc3)C(C)C2)cc1 (stereo not given)	-0.4	0.035
CC1CC(C)CN(C(=O)c2cc3ccccc3oc2=O)C1 (stereo not given)	-0.15	x
Cc1cccc(Cl)c1Oc1ccc(C(F)(F)F)cc1[N+](=O)[O-]	x	-0.65
Cn1c(O)c(C=NCC2(C)CC(O)CC(C)(C)C2)c(=O)n(C)c1=S (stereo not given)	-0.25	x
N#CCc1ccc(Oc2ccc(C(F)(F)F)cn2)cc1	0.25	-0.01
COc1ccc([N+](=O)[O-])c(N2CCOCC2)n1	x	-0.9
Fc1nc(Nc2ccccc2)c2c(c1Cl)Oc1ccccc1O2	1.4	18
Cc1cccc(-c2noc(-c3ccc(OC(F)(F)F)cc3)n2)c1	0	-0.14
CSc1ncc(C(=O)NC(C)c2ccccc2)c(C)n1 (stereo not given)	1	-0.4
CCCNC(=O)c1c(N)n(-c2ccccc2)c2nc3ccccc3nc12	-0.1	x
O=C1CCN(Cc2ccccc2)C(=O)N1c1ccc(F)cc1	2.2	0.36
CCOC(=O)c1sc2ccc(S(=O)(=O)N3CCCCC3)cc2c1N	0.15	15
CCc1nc2ccccc2c2c1C(=O)N(CCCN(C)c1ccccc1)C2=O	x	-0.12
CCCCC(=O)O/N=C1\C(=O)N(Cc2cccc(Cl)c2)c2ccccc21	x	-0.4
CCOC(=O)C1CCN(C(=O)CCc2ccccc2)CC1	-0.4	0.16
O=C1CSC(c2cccnc2)N1Cc1cccnc1 (stereo not given)	-0.65	0.41
CC(C)C(=O)Nc1cccc(-c2nc3ccccc3o2)c1	0.9	x
CC1CCCC(C)N1Cn1nc2c(Cl)cc(Cl)cn2c1=S (stereo not given)	-0.5	x
COc1ccc(C2=NN(c3ccc([N+](=O)[O-])cc3)C(=O)/C2=C\c2cc(OC)c(O)c(OC)c2)cc1	x	-0.7
Cc1ccc(-c2cc(C(=O)NCc3cn(C)nc3C)c3cc(Br)ccc3n2)cc1	-0.4	-0.1
CSCCNC(=O)c1ccccc1N	-1.1	63
Cc1ccc(NC(=O)Cn2cnc3sc(C(=O)N4CCN(Cc5ccc6c(c5)OCO6)CC4)c(C)c3c2=O)cc1Cl	x	-1
CCOC(=O)C1CCCN(c2ncnc3c2cnn3-c2ccc(Cl)cc2)C1 (stereo not given)	x	-0.46
Cc1cc2nc3c(=O)n(C)c(=O)[nH]c3nc2cc1N=CN(C)C	2.2	-0.49
CC(C)c1[nH]nc2c1C1(C(=O)Nc3ccc(F)cc31)C(C#N)=C(N)O2 (stereo not given)	x	-0.7
Cc1ccc(N/C(SCc2ccc(Cl)cc2)=C(/C#N)C(N)=O)cc1C	x	0.77
N#CCc1ccc(OC(=O)c2sc3ccccc3c2Cl)cc1	-0.2	2
Oc1c(Br)cc(Br)cc1C=NCc1ccc(F)cc1	x	-0.35
COC(=O)C1=CN(C)C=C(C(=O)OC)C1c1ccc(C(C)C)cc1	-0.1	-0.14
COc1ccc(N(CC(=O)c2cc(C)n(C)c2C)S(=O)(=O)c2ccc3c(c2)OCCO3)cc1	-0.3	x
Cn1cccc1/C=C1\CN(Cc2ccccc2)C/C(=C\c2cccn2C)C1=O	-0.3	-1.5
Cn1c(NC2CC(=O)N(c3ccc(Cl)cc3Cl)C2=O)cc(=O)n(C)c1=O (stereo not given)	-0.3	2.9
Cc1cccc(C)c1N1CCN(C(=O)c2ccc(-n3nc(C(C)(C)C)cc3C(C)(C)C)cc2)CC1	x	-1
COC(=O)CCc1c(C)nn(-c2ccc(C(=O)N3CCN(C(=O)c4ccc(C)cc4)CC3)cc2)c1C	x	0.4
COC(=O)c1cc(Oc2ccc(C(=O)OC)cc2N)cc(C(=O)OC)c1	-0.55	-0.83
O=C1C2C(c3ccccc3)C=CC(c3ccccc3)C2C(=O)N1c1cccc(O)c1 (stereo not given)	-0.6	-0.14
CC1CCCCN1S(=O)(=O)c1ccc(S(=O)(=O)N2CCN(c3ncccn3)CC2)cc1 (stereo not given)	-0.35	1.1
CCOC(=O)c1cnc2c(ccc3ccccc32)c1NCc1cccnc1	-0.75	9.4
CCOC(=O)C1C(=O)NC(c2ccccc2)=NC1c1ccc(C(C)C)cc1 (stereo not given)	x	0.21
CCOC(=O)N1CCC(NC(=O)c2cccnc2SC)CC1	-0.45	0.015
CN(CCC#N)C(=O)c1ccc2c(c1)N(Cc1ccc(F)cc1)C(=O)c1ccccc1S2(=O)=O	2.5	-0.83
c1ccc(-c2csc3ncn4cnnc4c23)cc1	-0.85	0.31
CCOc1ccc(-n2c(CNC(=O)c3ccco3)nnc2SCC(=O)Nc2nnc(C)s2)cc1	x	0.28
NCC(=O)NCC(=O)NCC(=O)O	x	-0.21
CSc1nc(-c2ccccc2)[nH]c(=O)n1	x	0.67
Cc1ccc2oc(=O)c3cc(C(=O)NCCN4CCCCC4C)sc3c2c1 (stereo not given)	-0.1	0.68
COc1cc(/C=C/C(=O)Nn2c(-c3cccs3)nc3ccccc3c2=O)cc(OC)c1OC	x	5.8
CNC(=S)NNS(=O)(=O)c1ccc(Cl)cc1	-0.2	-0.21
CCn1c(O)c(/C=C2/C=CC=N2)c(=O)[nH]c1=S	1.2	0.1
O=C(NCc1ccc2c(c1)OCO2)Nc1ccc2ccccc2c1	0.9	2.4
S=C(c1cccc(Br)c1)N1CCNCC1	-0.95	x
Cc1onc(-c2ccccc2)c1C(=O)NCCN(C)C	0.25	0.7
Cc1ccc(-c2csc(C(C#N)=C3CCCC3)n2)cc1	-0.2	x
CCC(CCC(C)C1CCC2C3CC=C4CC(OC(=O)c5ccccc5)CCC4(C)C3CCC12C)C(C)C (stereo not given)	x	-0.35
NC(=O)NC(=O)CSc1nncn1-c1ccccc1	-0.9	x
COc1ccc(-c2csnn2)cc1	x	-0.13
CCCOc1ccc(C(=O)Nc2ccc(-c3nc4ccccc4o3)cc2)cc1	-0.4	-0.23
COc1ccc2cc3c(N)nn(C(=O)c4cncc(Br)c4)c3nc2c1	-0.3	-0.02

As a short view, part of the list above:
SMILES	AID504770	Ba CapD inh
CCC(CCC(C)C1CCC2C3CC=C4CC(OC(=O)c5ccccc5)CCC4(C)C3CCC12C)C(C)C (stereo not given)	x	-0.35
NC(=O)NC(=O)CSc1nncn1-c1ccccc1	-0.9	x
COc1ccc(-c2csnn2)cc1	x	-0.13
CCCOc1ccc(C(=O)Nc2ccc(-c3nc4ccccc4o3)cc2)cc1	-0.4	-0.23
COc1ccc2cc3c(N)nn(C(=O)c4cncc(Br)c4)c3nc2c1	-0.3	-0.02

Quoted at random: four compounds from above, in no set order.
SMILES	AID504770	Ba CapD inh
CCn1c(O)c(/C=C2/C=CC=N2)c(=O)[nH]c1=S	1.2	0.1
O=C(NCc1ccc2c(c1)OCO2)Nc1ccc2ccccc2c1	0.9	2.4
COc1ccc2cc3c(N)nn(C(=O)c4cncc(Br)c4)c3nc2c1	-0.3	-0.02
CCC(CCC(C)C1CCC2C3CC=C4CC(OC(=O)c5ccccc5)CCC4(C)C3CCC12C)C(C)C (stereo not given)	x	-0.35

(next part)
SMILES	AID504770	Ba CapD inh
CCCNc1c(NC(C)=O)c(=O)oc2ccccc12	-0.5	-0.21
CN1c2ccccc2C(=O)/C(=N\Nc2cc(C(F)(F)F)cc(C(F)(F)F)c2)S1(=O)=O	x	0.26
COc1ccc(CC(=O)Nc2ccc(OC)cc2)cc1	0.05	0.93
COc1ccc(C)cc1C(=O)CCC(=O)NC1CCCCC1	0.8	x
CS(=O)(=O)Nc1nnc(SCC(=O)Nc2ccccc2)s1	0.5	1.4
O=S(=O)(c1cccs1)n1nnc2ccccc21	-0.05&0	0.035&0.035
CCOC(=O)c1c(SCC)nc(=O)[nH]c1C	-0.95	x
CCC(C)N1C(=O)C2C(C(=O)Nc3cccc(C)c3)C3C=CC2(O3)C1C(=O)NC1CCCC(C)C1C (stereo not given)	x	-0.52
COc1cccc(CNn2cnnc2)c1O	-0.3	x
O=C(/C=C/c1ccccc1)NCc1nc2ccccc2[nH]1	-0.65	-0.89
COc1cccc(CNC(C)C(=O)Nc2ccc(S(N)(=O)=O)cc2)c1 (stereo not given)	-0.3	x
COC(=O)c1ccc(C(=O)Nc2ccc3nc(-c4cccnc4)[nH]c3c2)cc1	-0.4	-0.16
Cc1c(C(=O)NN)c2cc(O)ccc2n1C	0.5	x
O=c1cc(CN2CCN(S(=O)(=O)/C=C/c3ccccc3)CC2)c2ccc(O)cc2o1	-0.9	x
O=S(=O)(c1ccc2c(c1)OCCO2)N1CCN(c2cccc(C(F)(F)F)c2)CC1	0.15	0.51
c1ccc(OCCn2cnc3ccccc32)cc1	-0.5	0.29
COc1ccc(Nc2nc(N3CCN(S(=O)(=O)N(C)C)CC3)nc3ccccc23)cc1	1.9	x
Cc1cc(C)c2c(N)c(S(=O)c3ccc(C(C)(C)C)cc3)sc2n1 (stereo not given)	-0.35	-0.59
O=C(N/C=C/c1ccco1)OCc1ccc(C(F)(F)F)cc1	-1.1	-0.47
Cc1nc2ccc(C(=O)OCC#N)cc2nc1C	0.4	x
O=C(Nc1cccc(Cl)c1)c1ncn(-c2ccccc2)n1	1.8	2
Cc1ccc(C2C(C(=O)O)c3ccccc3C(=O)N2C)o1 (stereo not given)	-0.75	-0.3
O=S(=O)(CCSc1nc2ccccc2s1)c1nc2ccccc2s1	0.4	-0.39
COc1ccc(/C=N/n2cn[nH]c2=S)cc1	1.4	-2.7
CCOC(=O)COc1ccc(/C=C2\C(=O)NC(=S)N(c3ccc(OC)cc3)C2=O)cc1OC	x	-0.1
Fc1nc(N2CCCC2)c(F)c(Oc2ccc(Cl)cc2)c1F	-0.6	0.7
CCOC(=O)c1cnc(SC)nc1Nc1cc(C(F)(F)F)ccc1Cl	x	-0.62
N#Cc1ccc(S(=O)(=O)NCc2ccncc2)cc1	x	0.13
C=CCN1C(=O)C(C(c2cccc([N+](=O)[O-])c2)C2C(=O)NC(=S)N(CC=C)C2=O)C(=O)NC1=S (stereo not given)	x	-1.3
Cc1csc(SCC(=O)NC(=O)NCc2ccco2)n1	-0.8	x
Oc1ccc(N=c2cc(-c3ccccc3)oc3ccc(Cl)cc23)cc1	2.6	2.7
CC1CC(C)CN(c2nnc(N)s2)C1 (stereo not given)	-1.4	-0.02
CCOc1ccc(OCc2ccc(C(=O)OCc3ccccn3)o2)cc1	-0.7	1.5
CC(NC(=O)NC(C)(C)C)c1ccccc1 (stereo not given)	-0.9	-0.31
COC(=O)c1nc(NC(=O)c2ccccc2)n[nH]1	-0.05	x
COc1ccc(-n2nc(C(=O)O)cc2-c2ccccc2)cc1	-0.2	x
COc1cccc(NC(=O)c2sc3[nH]c(=O)c(C(=O)O)cc3c2N)c1	0.7	-1.8
